VDR inhibitor: inhibitors of human vitamin D receptor; P11473; VDR-SRC2-3 peptide fluorescence polarization, 2 h; Potency, µM, for inactives: max response, negative = inhibition, most hits filed as inhibitors; 400,000 tested, 0.93% active; AID 504847; active = well fitted inhibition curve with a large enough effect; inconclusive = small, poorly fitted or top-dose-only effect, or another doubt; inactive = no such curve, though single readings can be large or run the other way; also: series mostly up to about 120 µM
Target sequence (P11473 whole entry, looked up): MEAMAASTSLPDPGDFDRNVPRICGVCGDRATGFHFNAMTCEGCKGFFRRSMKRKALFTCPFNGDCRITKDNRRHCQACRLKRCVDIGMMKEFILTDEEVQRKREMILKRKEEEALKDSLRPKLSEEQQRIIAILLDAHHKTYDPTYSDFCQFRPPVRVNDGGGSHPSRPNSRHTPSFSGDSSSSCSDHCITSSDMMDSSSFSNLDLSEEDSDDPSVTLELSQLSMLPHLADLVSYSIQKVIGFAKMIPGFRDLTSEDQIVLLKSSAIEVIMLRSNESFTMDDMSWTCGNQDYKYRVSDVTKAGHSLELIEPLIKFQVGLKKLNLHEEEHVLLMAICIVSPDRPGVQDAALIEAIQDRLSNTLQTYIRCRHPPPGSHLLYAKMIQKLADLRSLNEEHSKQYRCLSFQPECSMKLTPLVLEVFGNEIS
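After 23 nl compound addition and a short centrifugation, plates sat for 2 hours at ambient temperature; polarization of fluorescence then indicated loss of VDR binding to peptide SRC2-3.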
The depositor's hits bear a star; ? = inconclusive; & = joins results of further samples. % is scaled to controls: 0 for no effect and ±100 for the full control effect; potency is read from the fitted curve at half-maximal effect.

A first look (five entries):
structure | VDR inhibitor
COc1ccc(-c2c3c(nc4sc(C(=O)Nc5ccc(F)cc5)c(N)c24)CC(C)(C)CC3=O)cc1 | 6%
O=C(Nc1cc(Cl)cc(Cl)c1)c1ccc(F)c(S(=O)(=O)N2CCN(c3ccccc3F)CC2)c1 | -1%
CCC(=O)N1CCc2cc(Br)cc(S(=O)(=O)N3CCCC(C(=O)Nc4cc(C)ccc4OC)C3)c21 (stereo not drawn) | -13%
O=C(Nc1ccc(F)cc1F)c1csc(-c2ccccc2)n1 | 16%
Cc1nn(C(C)C)c(C)c1CN1CCCC(CCC(=O)NCc2ccccc2F)C1 (stereo not drawn) | 21%

The listing, repeating the preview:
structure | VDR inhibitor
COc1ccc(-c2c3c(nc4sc(C(=O)Nc5ccc(F)cc5)c(N)c24)CC(C)(C)CC3=O)cc1 | 6%
O=C(Nc1cc(Cl)cc(Cl)c1)c1ccc(F)c(S(=O)(=O)N2CCN(c3ccccc3F)CC2)c1 | -1%
CCC(=O)N1CCc2cc(Br)cc(S(=O)(=O)N3CCCC(C(=O)Nc4cc(C)ccc4OC)C3)c21 (stereo not drawn) | -13%
O=C(Nc1ccc(F)cc1F)c1csc(-c2ccccc2)n1 | 16%
Cc1nn(C(C)C)c(C)c1CN1CCCC(CCC(=O)NCc2ccccc2F)C1 (stereo not drawn) | 21%
CCC1CCCCN1C(=O)Cn1c(=O)n(CCCCCC(=O)NCc2ccccc2)c(=O)c2sccc21 (stereo not drawn) | 12%
O=S(=O)(c1cccnc1)N1CCN(c2nc(-c3cccs3)nc3ccccc23)CC1 | 0%
CCCc1cc(=O)[nH]c(SCc2ccccc2Cl)n1 | 19%
O=C(CCl)Nc1nc(-c2ccco2)c(-c2ccco2)s1 | -15%
COc1ccc(N2C(=O)C(Cl)=C(Nc3c(C)n(C)n(-c4ccccc4)c3=O)C2=O)cc1 | ?
Cc1cc(C)nc(SCC(=O)NNC(=O)c2ccccc2C)n1 | 15%
O=C(NC(=S)Nc1ccc(O)cc1)c1ccccc1Cl | -4%
CC(Nc1ccc(-c2nc(-c3ccccn3)no2)cc1[N+](=O)[O-])c1ccccc1 (stereo not drawn) | -7%
COc1cccc(/C=N/n2c(=O)[nH]c3ccccc32)c1OC | -13%
COc1ccc(NC(=O)CSCc2ccc([N+](=O)[O-])cc2)cc1OC | -19%
CCOc1ccc(C(=O)CCC(=O)Nc2ccc(C)c(S(=O)(=O)N3CCCCC3)c2)cc1 | -16%
CC(=O)Nc1ccc(-c2csc(Nc3cccc(C)n3)n2)cc1 | -6%
OC(CNCc1ccc2c(c1)OCO2)COc1ccc(F)cc1 (stereo not drawn) | -10%
O=C(NCc1ccccc1Cl)c1ccc(NC(=O)c2nsc3ccccc23)cc1 | 1%
CO[C@H]1[C@@H](OC(N)=O)[C@H](O)[C@@H](Oc2ccc3c(O)c(NC(=O)c4ccc(O)c(CC=C(C)C)c4)c(=O)oc3c2C)OC1(C)C | -1%
O=C(O)c1ccc(CSc2nc(-c3ccccc3)cc(C(F)(F)F)n2)cc1 | ?
O=C(Nc1ccccc1)c1ccccc1OCc1ccc(F)cc1 | 4%
CC(C)Oc1ccc(S(=O)(=O)N2CCOCC2)cc1NC(=O)CC1CCCC1 | 1%
CCC(C)[C@H](NC(=O)[C@@H]1CSC2c3ccccc3C(=O)N21)C(=O)N1CCCCC1 (stereo partly drawn) | 0%
Cc1ccc(C(=O)C2=C(O)C(=O)N(CCCn3ccnc3)C2c2ccc(OC(C)C)cc2)o1 (stereo not drawn) | -14%
COc1ccc(C(=O)N2CCN(CCNC(=O)C(=O)Nc3ccc(F)cc3)CC2)cc1OC | -7%
CCn1c(SCC(=O)n2c(C)c(C)c3ccccc32)nnc1-c1ccco1 | 4%
CCc1cccc(NC(=O)c2ccc(CNS(=O)(=O)c3ccc4c(c3)C(C)(C)C(=O)N4C)cc2)c1 | 6%
CC(=O)c1cccc(S(=O)(=O)N2CCC(C(=O)NC3CCCC3)CC2)c1 | -14%
O=[N+]([O-])c1ccc(N2CCN(S(=O)(=O)c3cnc[nH]3)CC2)cc1 | 4%
O=C(c1ccccc1)N1CCOC12CCN(c1ncc(C(F)(F)F)cc1Cl)CC2 | -5%
CC(=O)C1=C(C)N(CC2CC2)C(=O)N[C@H]1c1ccc(Br)cc1 | -18%&2%
CCCCNC(=O)c1ccc2c(c1)ncn2C1CCCCC1 | -11%
CCS(CC)=NS(=O)(=O)c1ccc(NC(C)=O)cc1 | 13%
C#C[C@]1(O)CC[C@H]2[C@H]3[C@H](CC[C@@]21C)C1=C(CC(=O)CC1)C[C@@H]3C | ?
Cc1nn(C)c(C)c1NC(=O)c1cc2nc(-c3ccco3)cc(C(F)(F)F)n2n1 | 21%
O=C(CN1C(=O)C2C3C=CC(C3)C2C1=O)Nc1ccc(S(=O)(=O)N2CCCCC2)cc1 (stereo not drawn) | -2%
O=C(N[C@H](Cc1cc(=O)[nH]c2ccccc12)C(=O)O)c1ccc(Cl)cc1 | -20%
O=C(/C=C/c1ccccc1)Nc1ncn[nH]1 | -12%
CCCCn1c(SCC(=O)Nc2cc(NC(=O)c3ccco3)ccc2C)nc2ccccc2c1=O | 17%
Cc1ccccc1OCC(=O)Nc1nc(C)c(C(=O)N(C)C)s1 | -8%
CC(CNC(=O)C1CCN(S(=O)(=O)c2ccc3c(ccn3C)c2)CC1)c1ccccc1 (stereo not drawn) | -2%
COc1ccc(N(CC(=O)Nc2cc(Cl)ccc2OC)C2=NC3CS(=O)(=O)CC3S2)cc1 (stereo not drawn) | -11%
Cc1cccc(C)c1NC(=O)C(NC(=O)CN1C(=O)c2ccccc2C1=O)c1ccccc1 (stereo not drawn) | 16%
CN(CC(=O)Nc1cc(S(=O)(=O)N2CCCC2)ccc1Cl)Cc1ccc2c(c1)OCO2 | 14%
Cc1c(C(=O)Nc2c(F)cccc2F)sc2ncn(Cc3ccccc3F)c(=O)c12 | 1%
CCOc1ccc2[nH]c(O)c(NC(C)=O)c2c1 | -16%
CN(C)CCCCCCCCCCC(=O)/C=N/O | 5%
O=C(Nc1ccccc1)c1ccc(S(=O)(=O)N2CCC(C(=O)O)CC2)cc1 | -4%
O=C(Nc1ccc(Br)c(C(F)(F)F)c1)c1ccccc1 | -2%
O=C1C=CC2C(c3ccc4c(c3)OCO4)CC1N2Cc1ccccc1 (stereo not drawn) | ?
CN(C)c1nc(-c2ccc3c(c2)OCO3)nc2ccccc12 | ?
CCC(C(=O)Nc1cc(OC)ccc1OC)n1nc(-c2ccccc2)c2c(c1=O)CCCC2 (stereo not drawn) | 1%
CCCCN(CC)C(=O)C1CCC(CNS(=O)(=O)c2cccc3nsnc23)CC1 (stereo not drawn) | -4%&-10%
O=C(Cn1nc(CNc2ccc(Cl)cc2)[n+]2c1CCCCC2)c1ccc(Br)cc1 | -1%
COc1ccc(C(=O)Nc2cc3c(cc2N2CCOCC2)n(C)c(=O)n3C)cc1OC | 25%
N#CC1=C(SCC(=O)NCc2ccccc2)NC(=O)CC1c1ccco1 (stereo not drawn) | -11%
CN(C)c1cc[n+](CC[n+]2ccc(N(C)C)cc2)cc1 | -20%
C=CCOc1ccc(/C=C\c2nc(O)c([N+](=O)[O-])c(=O)[nH]2)cc1OC | ?
CCCc1nc(N)c(C#N)c(N)c1C#N | 30%

More structures follow.
structure | VDR inhibitor
COC(=O)c1cc(C(=O)OC)n(Cc2ccc(Cl)cc2Cl)n1 | -13%
CCCCC[C@@H]1C=C(C(=O)O)[C@H](c2ccc(Br)cc2)N1S(=O)(=O)c1ccc(C)cc1 | -1%
CCc1cc(C(=O)c2ccc(OC)cc2)c(NC(=O)CCC(=O)O)s1 | ?
O=C1CCCC2=C1C(c1ccccc1)CC(=O)N2c1ccc(F)cc1F (stereo not drawn) | -2%
CCN(C(=O)CN1C(=O)NC(c2ccccc2)(c2ccccc2)C1=O)c1ccccc1 | -18%
COc1cc(C2C(C#N)=C(N)Oc3cc4c(cc32)OCO4)cc(OC)c1OC (stereo not drawn) | 9%
COc1ncccc1-c1nnn(-c2ccc(C)cc2)n1 | 0%
Cc1cnnn1-c1ccc(C(=O)CCl)cc1 | -23%
O=C(NCc1ccncc1)/C(=C/c1cccc([N+](=O)[O-])c1)NC(=O)c1ccccc1 | 5%
CCCCn1nnnc1SCC(=O)NC1CCCCC1 | -18%
CC1CN(C(=O)CCc2ccccc2)C(C)CN1C(=O)CCc1ccccc1 (stereo not drawn) | 3%
Cc1nc(NC(=O)CSc2nncs2)c(Cl)cc1Cl | -2%
CCC(C)[C@H](NC(=O)NCc1ccc(S(N)(=O)=O)cc1)C(=O)OC (stereo partly drawn) | 2%
Cc1cc(C)n2nc(N)nc2n1 | -12%
O=C(NN=Cc1ccccc1Cl)c1cccc2ccccc12 | 3%
COc1cc(NC(=O)Cc2cccs2)cc(OC)c1 | -8%
COC(=O)c1cc(Br)c(=O)n(CCN2CCCC2)c1 | 6%
O=C(CSc1nc2ccccc2c(=O)n1CCCN1CCOCC1)NCCc1ccccc1 | 0%
CC1(C)OC(=O)N(c2ccccc2)C12C=Cc1c(ccc3ccccc13)O2 (stereo not drawn) | -13%
CNC(=O)Nc1cccc(C(F)(F)F)c1 | 17%
O=C(NC1CCCCC1)c1cccc2c1C(=O)c1ccc(N3CCCC3)cc1S2(=O)=O | -4%
CC(C)(C)NC(=O)COc1coc(CN2CCN(Cc3ccccc3)CC2)cc1=O | 14%
CC(C)OCC(O)CN1CCN(CCN2C(=O)c3cccc4cccc(c34)C2=O)CC1 (stereo not drawn) | 10%
Cc1cc(C)c(C(=O)NCC2CCCO2)c(C)c1C(=O)NCC1CCCO1 (stereo not drawn) | ?
CCOC(=O)c1nn(-c2ccc(F)cc2)c2nc(CC(C)C)c(C#N)c(=O)n12 | -16%
COC(=O)c1cccc(NS(=O)(=O)c2ccc(NC(C)=O)cc2)c1C | 7%
Nc1ccc(-n2nc(C(F)(F)F)cc2C(F)(F)F)cc1 | 6%
COc1cc(/C=N/NC(=O)C(=O)NCc2cccnc2)cc(OC)c1OC | -30%
O=C(Nc1nnc(-c2ccco2)o1)c1ccc(Cl)cc1 | 0%
COCc1nnc(NC(=O)c2ccccc2[N+](=O)[O-])s1 | -5%
CCCc1cc(=O)[nH]c(SCC(=O)N(C)CC(=O)Nc2ccccc2CC)n1 | ?
Cc1ccc(CNC(=O)COC(=O)CSc2cc(C)c(Br)cc2C)cc1 | 3%
CC1(C)Oc2ccc3ccc(=O)oc3c2[C@@H](O)[C@H]1O | 13%
CCOc1ccc(NC(=O)CC2C(=O)N(c3ccccc3)C(=O)N2Cc2ccccn2)cc1 (stereo not drawn) | 4%
O=C(Nc1nc2ccccc2[nH]1)c1cccc(F)c1 | -8%
c1ccc2c(-c3ccc(OCCN4CCCCC4)cc3)c(-c3ccsc3)sc2c1 | -6%
O=C1C2CC=C(Cl)CC2C(=O)N1CC1OCCc2ccccc21 (stereo not drawn) | -11%
C=CCSc1nc(C)c(CCCC)c(=O)[nH]1 | -4%
N=c1c(C(=O)NCC2CCCO2)cc2c(=O)n3ccccc3nc2n1Cc1ccc(F)cc1 (stereo not drawn) | -5%
O=C(O)C1CCC(Cn2c(SCc3cc(=O)n4cc(Cl)ccc4n3)nc3ccsc3c2=O)CC1 (stereo not drawn) | -4%
CCCCn1c(=S)[nH]c2ccccc2c1=O | -4%
O=C(NCc1ccco1)c1ccc(Cn2c(SCc3ccccc3)nc3cccnc32)cc1 | 4%
COc1ccc(S(=O)(=O)Nc2cccc(-c3ccc(N4CCCCCC4)nn3)c2)cc1F | 7%
COCC(=O)Nc1ccc([N+](=O)[O-])cc1OC | -16%
O=C(NCCO)c1cc([N+](=O)[O-])cc2c1C=Cc1ccccc1O2 | 3%
CCCCNc1ccc2c(c1)C1CC2CCN1C(=O)OCc1ccccc1 (stereo not drawn) | -4%
CCS(=O)(=O)c1ccc2c(c1)N(S(=O)(=O)c1ccc(C)cc1)CC(C(=O)O)O2 (stereo not drawn) | -1%
CSCC[C@H](NC(=O)c1ccc(NC[C@@H](N)CS)cc1-c1ccccc1)C(=O)O | 7.9µM*
Cc1c(C(=O)N2CCN(c3ccc([N+](=O)[O-])cc3)CC2)oc2ccccc12 | -12%
O=C(CCCCl)NC(=S)Nc1ccc(N2CCOCC2)cc1 | -4%
COC(=O)c1c(NC(=O)c2ccc(S(=O)(=O)N3CCC(C)CC3)cc2)sc2c1CCN(C)C2 | 2%
O=C(c1ccccc1S(=O)(=O)NCc1ccccc1)N1CCCC1 | 6%
O=C(c1cc(Br)c[nH]1)N1CCCCC1 | -12%
COC(=O)[C@]1(C)N[C@H](c2ccc(-c3ccc(OC)cc3)cc2)[C@@H]2C(=O)N(C)C(=O)[C@@H]21 | -1%
S=C(Nc1ccc(Cl)cc1)c1nc2ccccc2[nH]1 | -8%
O=C(NCc1ccccc1)/C(=C/c1ccco1)NC(=O)c1ccco1 | -4%
O=C1CC(c2ccc(Cl)cc2)n2nc(N3C(=O)c4ccccc4C3=O)nc2N1 (stereo not drawn) | 0%
Cc1[nH]c(C)c(S(=O)(=O)N2CCc3ccccc32)c1C(=O)N1CCCCC1 | 10%
COc1cccc(C(=O)NCc2n[nH]c(=S)n2-c2cccc(C)c2)c1 | -3%
CCOC(=O)C1CN(S(=O)(=O)c2ccc(OC)cc2)c2cc(CC(=O)OC)ccc2O1 (stereo not drawn) | -25%
CCN(CC(=O)Nc1ccc(NC(C)=O)cc1)CC(=O)Nc1ccc(F)c(Cl)c1 | 5%

As entered above.
For VDR inhibitor, CCCc1nc(N)c(C#N)c(N)c1C#N is listed with 30%
For VDR inhibitor, O=C(c1ccccc1S(=O)(=O)NCc1ccccc1)N1CCCC1 is listed with 6%

Screening results (PubChem)

An excerpt. The share of hits here may be higher or lower than overall.
